Compound activity from PubChem.
rRNA inh HTS – inhibits bacterial ribosomal RNA function over humanized ribosomes; E. coli WT GFP vs humanized-ribosome RFP mutants, fluorescence, 24 h; active compounds read low; DMSO median 0, no signal -100; GFP signal change (wild-type ribosome), % (concentration not given with the values); 350,000 compounds, 1.6% hits; AID 720706;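 active means significant combined selectivity score with lowered wild-type GFP, culture density cut under 30%, mutant RFP and density less affected; inactive means any of these conditions unmet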; further: one replicate is shown; some compounds called inactive have numbers as strong as hits
rRNA inh HTS OD600 – also measured in rRNA inh HTS; calls as there; OD600 change, %; measured here: OD600 growth;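 optical density of the mix in the first replicate; 0 = DMSO median and -100 = no signal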
rRNA inh HTS RFP – recorded beside rRNA inh HTS, whose call it bears; RFP signal change, %; measured here: RFP humanized mutant strains;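 first replicate; 0 = DMSO median and -100 = no signal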
Active calls of the source: *; & = joins results of further samples.

A first look, three compounds:
rRNA inh HTS	rRNA inh HTS OD600	Structure	rRNA inh HTS RFP
-0.4	-3.3	CCS(=O)(=O)Nc1ccc2c(c1)C(=O)N(C)C[C@@H](OC)[C@@H](C)CN(C(=O)COC)[C@H](C)CO2	0.1
-0.3	-3.3	O=C(C[C@H]1C=C[C@@H](NC(=O)Nc2ccccc2)[C@@H](CO)O1)NCc1cccc(F)c1	0.1
4.4	-10.7	O=C(Nc1ccccc1F)N1CC(=O)N2[C@H](C1)[C@@H](c1ccc(C#CC3CC3)cc1)[C@@H]2CO	2.2

The listing, from the first entry:
rRNA inh HTS	rRNA inh HTS OD600	Structure	rRNA inh HTS RFP
-0.4	-3.3	CCS(=O)(=O)Nc1ccc2c(c1)C(=O)N(C)C[C@@H](OC)[C@@H](C)CN(C(=O)COC)[C@H](C)CO2	0.1
-0.3	-3.3	O=C(C[C@H]1C=C[C@@H](NC(=O)Nc2ccccc2)[C@@H](CO)O1)NCc1cccc(F)c1	0.1
4.4	-10.7	O=C(Nc1ccccc1F)N1CC(=O)N2[C@H](C1)[C@@H](c1ccc(C#CC3CC3)cc1)[C@@H]2CO	2.2
1.4	-3.6	CCCNC(=O)Nc1ccc2c(c1)C(=O)N(C)C[C@H](OC)[C@@H](C)CN(CC1CCCC1)[C@H](C)CO2	6.0
1.3	-2.5	Cc1noc(C)c1S(=O)(=O)N(C)C[C@@H]1Oc2ccc(NC(=O)Nc3ccccc3)cc2CC(=O)N([C@H](C)CO)C[C@H]1C	-1.1
1.5	1.0	COCC(=O)Nc1ccc2c(c1)C(=O)N(C)C[C@@H](OC)[C@H](C)CN(C)[C@@H](C)CO2	-1.8
-22.9	-38.1	CC(C)NC(=O)N1Cc2cc(C(=O)NC3CCCCC3)nc(-c3cccc(-c4cccnc4)c3)c2[C@H]1CCO	2.2
4.4	9.3	C[C@@H]1CN([C@H](C)CO)C(=O)c2cc(N(C)C)ccc2O[C@@H](C)CCCCO[C@H]1CN(C)C(=O)c1ccncc1	-7.0
0.9	6.1	Cc1noc(C)c1NC(=O)Nc1ccc2c(c1)C(=O)N([C@H](C)CO)C[C@H](C)[C@H](CN(C)C(=O)Nc1ccccc1)O2	-1.6
2.9	9.9	C[C@@H]1CN([C@@H](C)CO)C(=O)Cc2cc(NC(=O)NC3CCCCC3)ccc2O[C@@H]1CN(C)CC1CCCCC1	0.0
-0.9	-5.7	CNC[C@@H]1Oc2ccc(N(C)C)cc2C(=O)N(C)C[C@H]1C	-0.3
-21.7	-53.4	COc1ccc(NC(=O)N2CC(=O)N3[C@H](CO)[C@@H](c4ccc(C5=CCCC5)cc4)[C@@H]3C2)cc1	29.8
3.1	1.1	COCC#Cc1ccc([C@@H]2[C@@H](CO)N3C(=O)CN(C(=O)C4CCC4)C[C@@H]23)cc1	-5.3
2.4	-1.9	O=C(C[C@@H]1CC[C@H](NC(=O)c2ccncc2)[C@H](CO)O1)NCc1ccncn1	0.2
1.2	-0.8	CCCNC(=O)Nc1ccc2c(c1)C(=O)N(C)C[C@@H](OC)[C@@H](C)CN(Cc1ccccc1)[C@@H](C)CO2	-2.1
0.8	0.9	CC(=O)Nc1ccc2c(c1)C(=O)N(C)C[C@@H](C)[C@@H](CN(C)S(C)(=O)=O)O2	-0.8
1.8	2.6	C/C=C/c1ccccc1[C@H]1[C@@H](C#N)N(C(C)=O)[C@@H]1CO	0.9
3.8	-9.4	CCCC#Cc1ccc([C@H]2[C@H](CO)N3C(=O)CN(C(=O)Nc4cc(F)ccc4F)C[C@@H]23)cc1	5.0
1.5	4.9	CN1C[C@@H]2[C@H](c3ccccc31)[C@H](CO)N2C(=O)Nc1ccccc1	-1.9
0.6	12.2	CC(=O)N1[C@@H](CO)[C@H](c2ccccc2)C12CN(C(=O)Nc1ccccc1F)C2	-0.8
6.6	-35.0	O=C(c1cnccn1)N1CC(=O)N2[C@H](CO)[C@@H](c3ccc(C#CC4CCCCC4)cc3)[C@H]2C1	27.8
0.3	-5.3	COc1ccc(C#Cc2ccc([C@H]3[C@H]4CN(C(=O)c5cccnc5)CC(=O)N4[C@H]3CO)cc2)cc1	2.1
-2.2	1.1	C/C=C/c1ccc([C@@H]2[C@@H](CN(C)C(=O)NC3CCCC3)N(C(C)=O)[C@H]2CO)cc1	-1.7
-0.4	-11.5	Cc1ccc(-c2ccc([C@H]3[C@@H](CO)N4C(=O)CN(C(=O)c5ccncc5)C[C@H]34)cc2)cc1	-0.3
-1.2	-7.1	O=C(C[C@@H]1C[C@H]2c3cc(NC(=O)NC4CCCCC4)ccc3O[C@H]2[C@@H](CO)O1)NC1CCCCC1	1.7
1.5	1.2	O=C(Cc1ccccn1)N1CC(=O)N2[C@H](C1)[C@@H](c1ccc(C#CC3CC3)cc1)[C@@H]2CO	0.8
4.6	2.2	CCC(=O)N1CC(=O)N2[C@H](CO)[C@@H](c3ccc(-c4ccc(C(=O)N(C)C)cc4)cc3)[C@H]2C1	-2.3
-4.2	7.2	C/C=C/c1ccc([C@@H]2[C@H](CO)N3C(=O)CN(Cc4ccc(C(=O)OC)cc4)C[C@@H]23)cc1	-1.4
3.7	3.9	O=C(Cc1cccnc1)N1CC2(C1)[C@H](c1ccccc1)[C@@H](CO)N2C(=O)C1CCC1	-3.6
-0.6	-5.4	COc1cccc(-c2ccc([C@H]3[C@@H](CO)N4C(=O)CN(C(=O)c5ccncc5)C[C@@H]34)cc2)c1	-3.4
-1.7	-1.4	COc1ccc(NC(=O)Nc2ccc3c(c2)C(=O)N(C)C[C@@H](OC)[C@H](C)CN[C@H](C)CO3)cc1	0.3
-18.6&0.1	-41.9&7.6	N#Cc1cccc(-c2ccc(C3[C@H]4CNC[C@@H]3N4C(=O)Nc3ccccc3F)cc2)c1 (stereo partly drawn)	12.5&1.3
-2.2	-48.1	O=C(c1ccccc1F)N1CC(=O)N2[C@@H](CO)[C@H](c3ccc(C#Cc4ccc(F)cc4)cc3)[C@@H]2C1	25.8
-10.5	-5.1	COCC#Cc1ccc([C@@H]2[C@@H](CO)N3C(=O)CN(C(=O)Nc4cc(F)ccc4F)C[C@@H]23)cc1	3.1
1.1	5.4	O=C1NCCOCc2cn(nn2)CC[C@H]1Cc1ccc(F)cc1	-4.0
-4.2	-6.0	C[C@H](CO)N1C[C@H](C)[C@H](CN(C)S(=O)(=O)c2ccc(Cl)cc2)OCCCC[C@H](C)Oc2ccc(NC(=O)Nc3cccc4ccccc34)cc2C1=O	-2.3
-0.2	-3.4	C/C=C/c1ccc([C@H]2[C@@H](CN(C)C(=O)CC3CC3)N(C(=O)C3CC3)[C@H]2CO)cc1	1.0
6.3	6.2	C[C@@H]1COCn2nncc2CC[C@H](Cc2cccc(Cl)c2)C(=O)N1	3.5
1.0	7.9	CCC(=O)N1[C@H](CO)[C@H](c2ccc(C3=CCCC3)cc2)[C@H]1CNC(=O)CN(C)C	-1.1
4.3	12.6	C[C@H](CO)N1C[C@H](C)[C@H](CN(C)C(=O)C2CC2)Oc2ncc(C3=CCCC3)cc2C1=O	-3.3
-5.6	-9.5	Cc1ccc(S(=O)(=O)N(C)C[C@H]2OCc3ccccc3-c3ccccc3C(=O)N([C@H](C)CO)C[C@@H]2C)cc1	6.8
-1.1	-7.4	C[C@@H]1CCCCO[C@@H](CN(C)Cc2ccccc2)[C@@H](C)CN([C@H](C)CO)C(=O)c2cc(NS(=O)(=O)c3ccc(Cl)cc3)ccc2O1	1.3
5.7&6.3	14.7&2.3	N#Cc1ccc(-c2ccc(C3[C@@H]4CN(C(=O)C5CCC5)C[C@H]3N4)cc2)cc1 (stereo partly drawn)	0.7&0.2
3.1	3.2	O=C(C[C@H]1C=C[C@H](NC(=O)C2CCOCC2)[C@H](CO)O1)Nc1nccs1	-0.7
2.6	6.6	CCCN1C[C@@H](C)[C@@H](OC)CN(C)C(=O)c2cc(NC(=O)COC)ccc2OC[C@H]1C	-0.8
-0.5	-3.5	C[C@@H]1CN([C@@H](C)CO)C(=O)c2cccc(NC(=O)C3CCCCC3)c2O[C@@H]1CN(C)S(=O)(=O)c1cn(C)cn1	0.4
-3.8	-2.4	COc1cccc(C(=O)Nc2ccc3c(c2)OC[C@@H](C)N(C)C[C@H](C)[C@H](OC)CN(C)C3=O)c1	-1.2
-4.5	0.6	COCC#Cc1ccc([C@@H]2[C@H]3CN(C(=O)Nc4ccc(F)cc4)CC(=O)N3[C@H]2CO)cc1	-1.3
1.4	-4.1	C[C@@H]1CN([C@@H](C)CO)C(=O)c2cc(NS(=O)(=O)c3ccc(Cl)cc3)ccc2O[C@@H]1CN(C)Cc1ccc(C(F)(F)F)cc1	6.8
2.0	2.1	C[C@H](CO)N1C[C@H](C)[C@H](CN(C)C(=O)Nc2ccccc2)OCCCC[C@H](C)Oc2ccc(NC(=O)NC3CCCCC3)cc2C1=O	2.3
2.6	1.9	CO[C@@H]1CN(C)C(=O)c2cc(NC(=O)C3CCOCC3)ccc2OC[C@H](C)N(C(=O)c2ccccc2)C[C@@H]1C	-1.0
0.8	-2.1	CO[C@H]1CN(C)C(=O)c2cc(NC(=O)NC(C)C)ccc2OC[C@@H](C)N(CCC(F)(F)F)C[C@H]1C	0.3
-4.8	11.7	CCC(=O)N1[C@H](CO)[C@H](c2ccc(C3=CCCCC3)cc2)[C@@H]1CN(C)C(C)=O	-2.3
-1.2	-2.9	Cc1ccc(S(=O)(=O)Nc2ccc3c(c2)C(=O)N([C@@H](C)CO)C[C@@H](C)[C@H](CN(C)C(=O)c2ccccc2)OCCCC[C@H](C)O3)cc1	0.6
3.8	9.6	COc1ccc2c3c(n(C)c2c1)[C@@H](CO)NCC31CCN(CC2CCCCC2)CC1	-1.8
2.2	2.6	CCS(=O)(=O)Nc1ccc2c(c1)C(=O)N(C)C[C@@H](OC)[C@@H](C)CN(CC1CCCC1)[C@@H](C)CO2	2.0
1.4	5.0	CCC(=O)N1CC2(CN(Cc3nccs3)C2)c2c(n(C)c3cc(OC)ccc23)[C@@H]1CO	-1.0
2.7	1.8	O=C(C1CCC1)N1CCCCN2[C@H](CO)[C@@H](c3ccc(-c4ccncc4)cc3)[C@H]2C1	2.2
1.5	9.6	COc1cccc(-c2ccc([C@H]3[C@H]4CN(C(=O)c5ccncc5)CC(=O)N4[C@H]3CO)cc2)c1	-7.5
-1.6	-11.5	CC=Cc1ccc2n(c1=O)C[C@@H]1[C@@H](CO)[C@H](C(=O)NC3CCC3)N(CCC)[C@H]21 (mixture of isomers)	0.0

Taken from above.
In rRNA inh HTS OD600, `COc1cccc(-c2ccc([C@H]3[C@H]4CN(C(=O)c5ccncc5)CC(=O)N4[C@H]3CO)cc2)c1` has 9.6
In rRNA inh HTS, `CCC(=O)N1CC2(CN(Cc3nccs3)C2)c2c(n(C)c3cc(OC)ccc23)[C@@H]1CO` has 1.4
In rRNA inh HTS RFP, `O=C(C1CCC1)N1CCCCN2[C@H](CO)[C@@H](c3ccc(-c4ccncc4)cc3)[C@H]2C1` has 2.2

Further records:
rRNA inh HTS	rRNA inh HTS OD600	Structure	rRNA inh HTS RFP
-32.1	-56.8	O=C(c1ccncc1)N1CC(=O)N2[C@H](C1)[C@@H](c1ccc(C#CCC3CCCC3)cc1)[C@@H]2CO	7.1
1.2	1.4	C[C@H]1CN([C@@H](C)CO)S(=O)(=O)c2ccc(C3=CCCC3)cc2O[C@H]1CN(C)C(=O)C1CC1	1.1
1.3	1.5	Cc1ccc(S(=O)(=O)Nc2cccc3c2O[C@H](CN(C)Cc2ccc(Cl)c(Cl)c2)[C@@H](C)CN([C@@H](C)CO)C3=O)cc1	2.2
0.2	3.5	COc1ccc2c3c(n(C)c2c1)[C@@H](CO)N(Cc1cccnc1)CC31CN(C(=O)c2cccnc2)C1	-3.7
-0.8	4.9	COCC#Cc1ccc([C@H]2[C@H]3CN(Cc4cccnc4)CCCCN3[C@H]2CO)cc1	1.4
-1.3	0.0	COCC(=O)Nc1ccc2c(c1)[C@H]1C[C@H](CC(=O)NCc3ccc(Cl)cc3)O[C@@H](CO)[C@H]1O2	-2.0
6.4	-2.9	COc1ccc(NC(=O)N(C)C[C@@H]2Oc3ccc(NS(=O)(=O)c4ccc(C)cc4)cc3CC(=O)N([C@H](C)CO)C[C@H]2C)cc1	0.1
-0.3	-4.5	Cc1noc(C)c1NC(=O)N(C)C[C@@H]1OCCCC[C@H](C)Oc2ccc(NC(=O)c3ccccc3)cc2C(=O)N([C@@H](C)CO)C[C@@H]1C	0.7
0.1	14.4	N#C[C@@H]1[C@@H](c2ccccc2-c2ccccc2F)[C@H](CO)N1C(=O)C1CCC1	1.8
1.4	-3.1	C[C@@H]1CN([C@H](C)CO)C(=O)c2cc(C#Cc3cccnc3)cnc2O[C@H]1CN(C)Cc1cccnc1	-0.8
1.6	1.6	O=C(C1CCCC1)N1CC2(C1)[C@H](c1ccccc1)[C@@H](CO)N2C(=O)c1cccnc1	-2.4
3.0	3.9	CN(C)C(=O)[C@H]1[C@H](CO)[C@H]2Cn3c(cccc3=O)[C@@H]1N2CC1CCCC1	-1.2
0.3&2.4	0.2&2.0	CC(=O)N1[C@@H]2CN(S(C)(=O)=O)C[C@H]1C2c1ccc(Br)cc1 (stereo partly drawn)	-1.0&-1.7
-9.2	2.1	COc1ccc(C#Cc2cnc3c(c2)C(=O)N([C@H](C)CO)C[C@@H](C)[C@@H](CN(C)C(=O)Nc2cccc(OC)c2)O3)cc1	5.0
0.2	-1.1	O=C1CNC[C@H]2[C@@H](c3ccc(-c4ccccc4F)cc3)[C@H](CO)N12	-3.1
-20.2	-63.0	O=C(C1CCC1)N1CC[C@@H]2[C@@H](CO)Nc3ccc(-c4cccc(F)c4)cc3[C@@H]21	5.8
-4.1	-3.6	C[C@@H]1CN([C@@H](C)CO)C(=O)c2cccc(NS(=O)(=O)c3cccs3)c2O[C@@H]1CN(C)C(=O)Nc1ccccc1	0.6
2.6	13.1	CC(=O)N1[C@@H]2c3ccc(C4=CCCC4)c(=O)n3C[C@@H]2[C@@H](CO)[C@@H]1C(=O)NC1CCC1	-3.4

Some of the compounds tested; count on the stated rates, not on these rows.
